# Compound activity (PubChem)
# NPYLR7 agonist = activates Aedes aegypti NPYLR7 receptor | HEK293T NPYLR7/Galpha15, GCaMP6s calcium fluorescence | activation, % at 10 µM | actives 0.15% (n = 270,000) | AID 1259423; in the data active = activation above about 40%;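 also: 0% = vehicle and 100% = reference agonist at the receptor; some compounds past the cut are filed as inactive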
# NPYLR7 agonist max-min = recorded beside NPYLR7 agonist, whose call it bears; activation, %; measured here: Max-Min RFU normalised activation; some inactives read as strong as hits;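 span of the calcium signal over five minutes; 0% = vehicle and 100% = native peptide agonist; compound fluorescence can raise it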
# Starred values were filed as active, the others as inactive; & = joins results of further samples. The list is partial. The share of hits here may be higher or lower than overall.
# Each structure is followed by: NPYLR7 agonist, NPYLR7 agonist max-min
CCCC(C)C(=O)Nc1nc2c(C)cccc2s1 (stereo unspecified)
 : 1, 0
CC(C)n1c(SCc2nc3c(F)cccc3[nH]2)nnc1N(C)C
 : 6, 4
O=C(Nc1ccccc1Cn1cccn1)N1CCCC(N2CCCC2)C1 (stereo unspecified)
 : -2, -1
O=C(NC12CC3CC(CC(C3)C1)C2)C1Cc2ccccc2S1 (stereo unspecified)
 : -2, -2
CC(C)(C)C1=NN(CC#N)C(=O)SC1
 : 3, 8
COc1ccc(S(=O)(=O)N2CCOC2CNC(=O)C(=O)NCCc2ccccc2)cc1C (stereo unspecified)
 : -4, 4
CCOCCCNC1CCN(c2ccc(C(=O)N3CCN(C(=O)OCC)CC3)cc2)CC1
 : 2, -5
CC(C)CCN(Cc1c(-c2ccccc2F)noc1N1CCOCC1)CC(O)CN1CCOCC1 (stereo unspecified)
 : 6, 4
O=P(O)(O)C(Nc1ccc(F)cc1)c1cccs1 (stereo unspecified)
 : 0, -1
COc1ccc2c(C)c(CC(=O)N[C@@H]3C[C@@H](CO)N(C)C3)c(=O)oc2c1
 : 1, -1
COc1cccc(CN(C(=O)c2cc(=O)[nH]c3ccccc23)C2CC2)c1
 : 1, -1
CN1CCN(c2ccc(-c3cc(-c4ccccc4Oc4ccccc4)cnc3N)cc2)CC1
 : -1, -4
CC(=O)CN1N=C(c2ccc(F)cc2)Cn2c1nc1c2c(=O)n(CC(C)=O)c(=O)n1C
 : 9, 14
COCCCNC(=O)c1cc(N2CCN(c3cccc(C(F)(F)F)c3)CC2)nc2ccccc12
 : 3, 4
Cc1ccc(CN(CCc2ccccc2)C(=O)CN(CCN2CCOCC2)C(=O)c2ccc(Cl)cc2Cl)o1
 : 11, 22
CCC(C)NC(=O)c1cc2c(=O)n3ccccc3nc2n1C (stereo unspecified)
 : 3, 1
CCCC(=O)N=c1sc2c(C)ccc(OC)c2n1CC
 : 2, 0
CCOc1ccccc1-c1cc(C)nc(N)n1
 : 5, 1
N#CCN(C1CC1)S(=O)(=O)c1ccc(C2CCCCC2)cc1
 : 0, -1
CC(NC(=O)c1ccc(=O)n(CCOc2ccccc2)n1)c1ccccc1F (stereo unspecified)
 : 8, 6
COC(=O)C1=C(C(=O)OC)[C@](C#N)(c2ccccc2)O[C@]1(C#N)c1ccccc1
 : 7, 6
O=C(NCc1ccccn1)c1coc(CN(Cc2ccc(F)cc2)Cc2cccs2)n1
 : 2, 6
CC(=O)Oc1c(-c2ccc(NC(=O)c3cccc(C)c3)cc2)c(-c2ccc(F)cc2)nn1-c1ccccc1C
 : -2, 5
CNC(=O)[C@@]1(OCc2cccc(F)c2)CC(OCc2cccc(OC(F)(F)F)c2)[C@H](O)[C@H](O)C1 (stereo partly specified)
 : 5, 17
CN(C(=O)Cc1ccccc1)c1c(F)cccc1C(=O)O
 : 2, 1
COc1ccc(NC(=O)c2c[nH]c3cc(F)cc(F)c3c2=O)cc1OC
 : 0, -4
NC(=O)C1CCN(c2ncnc3sc4c(c23)CCCCC4)CC1
 : 9, 11
Cc1ccc(NC(=O)CN2Cc3ccccc3CC2C(N)=O)cc1 (stereo unspecified)
 : 13, 9
Cc1noc(Cl)c1CCC(=O)N1CCN(C2CCCC2O)CC1 (stereo unspecified)
 : -1, -3
c1ccc(CNc2cc(-c3ccc4ncsc4c3)c3cc[nH]c3n2)nc1
 : 4, 3

# Next part; it opens with the two that closed the last part.
# Each structure is followed by: NPYLR7 agonist, NPYLR7 agonist max-min
Cc1noc(Cl)c1CCC(=O)N1CCN(C2CCCC2O)CC1 (stereo unspecified)
 : -1, -3
c1ccc(CNc2cc(-c3ccc4ncsc4c3)c3cc[nH]c3n2)nc1
 : 4, 3
COc1ccc(C)cc1-n1nnc(S(=O)(=O)c2ccc(C)cc2)c1C
 : -4, -6
C[C@]12C=CC(=O)C=C1CC[C@@H]1[C@@H]2C(=O)C[C@@]2(C)[C@H]1CC[C@]2(O)C(=O)CO
 : -2&-4, -7&-8
COc1ccc(C(=O)N(Cc2ccc(OC)c(OS(C)(=O)=O)c2)C(C)C)c(OC)c1
 : -11, -2
CCCNC(=O)N(Cc1nccn1Cc1ccccc1Cl)CC1CC1
 : 2, 10
CCCN1C(=O)C(c2c(CC)[nH]n(-c3ccc(Cl)c(Cl)c3)c2=O)=C([n+]2cc(C)cc(C)c2)C1=O
 : -8, 2
Cc1ccc(-c2ccc(C(=O)N3CCC(CCC(=O)NC4CC4)CC3)cc2)o1
 : 0, -5
O=[N+]([O-])c1cc(S(=O)(=O)Nc2ccc(SC(F)F)cc2)ccc1Cl
 : -3, -6
Cc1cn2c(n1)C(CNCC1=Cc3ccccc3OC1)CCC2 (stereo unspecified)
 : 7, 1
CCC1(CNCc2ncc[nH]2)CCCC1
 : 10, 6
Cc1[nH]c(=O)c(C#N)c(C)c1CCC(=O)N(C1CC1)C1CCc2ccccc21 (stereo unspecified)
 : 12, 9
O=C(Nc1ccc2c(c1)OCCO2)c1ccc(Cl)cc1Cl
 : -6, -8
COC(=O)C(CCSC)NC(=O)c1ccc(OC2CCN(C(C)=O)CC2)c(OC)c1 (stereo unspecified)
 : 1, -3
COC(=O)c1c(C)[nH]c(-c2csc(-c3cccc(OC)c3)n2)c1C
 : -2, -2
COCCNC(=O)c1coc(CN(CCc2c[nH]c3ccccc23)Cc2ccccc2Cl)n1
 : 18, 14
CCN(CC)C(=O)CSc1c(C(C)C)cnc2c1c(=O)n(C)c(=O)n2C
 : 4, 11
O=C1C=C(NNc2nc3ccccc3s2)CC1
 : 4, 3
CC(C)(C)C(NCCO)c1ccc(F)cc1 (stereo unspecified)
 : 1, 26
CCc1ccccc1NC(=O)Cn1c(=O)n(Cc2ccccc2)c(=O)c2c1c1cc(OC)ccc1n2C
 : -10, -13
O=C(CSc1nc(=O)n(Cc2cccnc2)c2c1CCCC2)Nc1ccccc1[N+](=O)[O-]
 : -5, -5
Cc1cc(C)cc(NC(=O)C(Sc2nncn2C)c2ccccc2)c1 (stereo unspecified)
 : 3, 2

# One compound at a time, from the list above. Values in the order: NPYLR7 agonist, NPYLR7 agonist max-min
# CNC(=O)[C@@]1(OCc2cccc(F)c2)CC(OCc2cccc(OC(F)(F)F)c2)[C@H](O)[C@H](O)C1 (stereo partly specified) across the screens: 5, 17
# CC(=O)CN1N=C(c2ccc(F)cc2)Cn2c1nc1c2c(=O)n(CC(C)=O)c(=O)n1C across the screens: 9, 14
# Cc1cc(C)cc(NC(=O)C(Sc2nncn2C)c2ccccc2)c1 (stereo unspecified) across the screens: 3, 2
# c1ccc(CNc2cc(-c3ccc4ncsc4c3)c3cc[nH]c3n2)nc1 across the screens: 4, 3
# CCN(CC)C(=O)CSc1c(C(C)C)cnc2c1c(=O)n(C)c(=O)n2C across the screens: 4, 11

# Carrying on.
# Each structure is followed by: NPYLR7 agonist, NPYLR7 agonist max-min
Cc1cccc(C(=O)N(Cc2cc(N)ccc2N(C)C)CC(C)C)c1
 : -1, -6
CCCCn1nnnc1NCc1ccc(OCC)cc1
 : 0, -1
OCC1(CCOc2ccccc2)CCCN(Cc2cc3c(cc2Cl)OCO3)C1 (stereo unspecified)
 : 8, 6
CSc1nc(C(=O)N2CCc3c(cnc(C)c3CNC(=O)/C=C/c3cccs3)C2)cs1
 : 18, 10
COC(=O)c1ccc(-c2nccn2C(Cc2ccco2)C(=O)O)cc1 (stereo unspecified)
 : 3, 3
CCCn1c(=O)cc(C(C)C)c2ccc(OCC(=O)NCC3CC3)cc21
 : 2, 0
CC(C)c1nc(CN(C)C(=O)CN2CCCN(C)CC2)cs1
 : 0, -4
Cc1nc2ccc(C(=O)N3CCCC(CO)(CCc4ccccc4)C3)cc2nc1C (stereo unspecified)
 : 1, -2
COCCN(Cc1cccc(OS(=O)(=O)C(C)C)c1)C(=O)NC(C)C
 : 26, 31
Cc1cccc(S(=O)(=O)Nc2cc(C(F)(F)F)ccc2N2CCCCC2)c1
 : -4, -6
Cc1nonc1CN(C)C(=O)CC1C(=O)NCCN1C/C=C/c1ccccc1 (stereo unspecified)
 : 2&2, 1&-5
CC(C)CNC(=O)c1ccc(CSc2nc(-c3ccccc3)cc(N3CCN(Cc4ccc5c(c4)OCO5)CC3)n2)o1
 : 13, 14
CCc1[nH]c2c(CNC(=O)CCn3cnnc3)cc(C)cc2c1C
 : 7, 0
Cc1ccc(C(=O)NC2CCN(CC(=O)N(C)CCC#N)CC2)o1
 : 6, 2
O=C1CC(N(C(=O)CCc2cc(F)ccc2F)C2CC2)C(=O)N1 (stereo unspecified)
 : 15, 12
Cc1ccc(CNC(=O)c2c(O)nc3cc(C)ccn3c2=O)cc1
 : -2, 30
Cc1ccc(OCCC(=O)NC2CCN(C(=O)c3ccco3)CC2)cc1C
 : -3, -4
CCOC(=O)N1CC(=O)N(Cc2ccccc2)CC(O)C1 (stereo unspecified)
 : 25, 29
COCCN=c1scc(-c2ccc(OC)cc2OC)n1N=Cc1cc(Br)ccc1O
 : 14, 10
COc1ccc(CCN(C)c2nc(SCc3ccc(C(=O)NC4CC4)cc3)nc(C)c2C)cc1OC
 : 7, 17
C=C(C)Cn1c(=O)c2c(nc3n(-c4ccc(CC)cc4)c(C)cn23)n(C)c1=O
 : 2, 12
COC(=O)/C(=C1\OC(=O)C(c2ccccc2)=C1O)c1ccccc1
 : -9, -15
Cc1nc(N2C[C@@H]3[C@H](C2)[C@H]2CC[C@@H]3O2)c2c(C)noc2n1
 : 12, 12
Cc1cc(C)cc(Nc2cc(C)nc(-n3nc(C)cc3C)n2)c1
 : 3, 4
COc1cc(OC)nc(/C=C/c2ccccc2)n1
 : -3, 3
NC1=NC(c2cn[nH]c2-c2ccccc2)n2c(nc3ccccc32)N1 (stereo unspecified)
 : 5, 3
COc1cc(NC(=O)CNCc2cc(F)ccc2F)ccc1Cl
 : -3, -6
Cc1nn(-c2ccc(F)cc2)c(C)c1C(=O)N1CCC2(CCCO2)CC1
 : 6, 3
CCOC(=O)c1sc2nc(CNCCCOC)[nH]c(=O)c2c1C
 : 17, 17
Cc1c(CSc2nnc(C3CC3)n2C2CC2)noc1-c1ccc(F)cc1
 : 16, 11
CCOC(=O)c1csc(NC(=O)c2cccc(C(F)(F)F)c2)n1
 : -4, -8
Clc1ccc2nc3c(nc2c1)-c1cccc2cccc-3c12
 : -2, -4
CCOc1ccc(OCC)c(S(=O)(=O)NCc2ccc3c(c2)OCO3)c1
 : -1, -5
Cc1cccc(COC(CN2CCN(S(=O)(=O)c3ccc(Cl)s3)CC2)c2ccc(Cl)cc2)c1 (stereo unspecified)
 : 21, 10
Cc1ccc(C)c(N2CCN(c3nc(-c4ccccc4)c4cc(Br)ccc4n3)CC2)c1
 : 10, 4
CCN(Cc1ccc(OC)cc1)C(=O)CC1C(=O)N(C)C(=O)N1C (stereo unspecified)
 : 18, 15
O=C(CCc1ccc(S(=O)(=O)N2CCCCC2)cc1)NCCc1cccs1
 : 0, 5
CSc1ccc(CC2(CCC(=O)NC(C)c3cccs3)CCC(=O)N2)cc1 (stereo unspecified)
 : 15, 10
CC(C)CCNC(=O)CCc1nc2cc(S(=O)(=O)N3CCCCC3)ccc2n1C
 : -2, 7
Cc1nc(C(Cl)(Cl)Cl)nc(N)c1C(=O)c1ccccc1
 : -11, -14
COCc1cnc2c(c1SCC(=O)Nc1c(C)cc(C)cc1C)c(=O)n(C)c(=O)n2C
 : 1, 7
Cc1ccc(C=C(C#N)c2nc3sc4c(c3c(=O)[nH]2)CCCC4)s1
 : 2, 2
CCOc1ccc(CCNC(=O)c2cc(Cl)c3c(c2)OCO3)cc1OCC
 : 2, -1
C=CCOc1ccc(CN2CCC3(CC2)C(=O)NCCN3C)cc1CC=C
 : -2, -2
Cc1nc2ccc(Cl)cn2c(=O)c1NC(=O)c1ccc(F)cc1F
 : 4, 2
Cc1cccc(OCc2nc(CN(C(=O)c3cccs3)C(C)C)cs2)c1C
 : 16, 25
Cc1nc(C2CCCNC2)cc(N2CCC3(CC2)Nc2ccccc2NC3=O)n1 (stereo unspecified)
 : 1, 1
COc1cc(C(=O)N2CCCN(c3ccncc3C)CC2)nc(OC)n1
 : -1, 1
c1ccc(-c2cn[nH]c2C2CCCNC2)cc1 (stereo unspecified)
 : 2, 0
CC(C)CN(Cc1csc(COc2cccc3ccccc23)n1)C(=O)c1ccc(F)cc1
 : 15, 23

# Continued:
# Each structure is followed by: NPYLR7 agonist, NPYLR7 agonist max-min
COCCN1C(=O)C=C(Nc2ccc(C(=O)O)cc2)C1=O
 : 1, 8
Fc1ccccc1SCc1csc(-c2ccc(Cl)cc2)n1
 : 4, 2
C#CCNC(=O)COc1c(Br)cc(C)cc1Br
 : -2, -4
Cc1cccc(N2CCN(C(=O)c3ccc(N4CC(C)OC(C)C4)nc3)CC2)c1C (stereo unspecified)
 : 6, 4
N#CC(=C(O)Cn1nc(C(=O)O)c2ccccc2c1=O)c1nc2ccccc2s1
 : 6, 4
CCC(=O)Nc1cc(-c2ccc(Cl)cc2)nn1-c1ccc(Br)cc1
 : 6, -4
Cc1cc2c(c(-c3ccc(S(N)(=O)=O)cc3F)c1)OC(CN)C2 (stereo unspecified)
 : -1, -3
CCn1cnnc1CCNC(=O)c1occc1C
 : 2, 1
CN1CCN(n2c3c(c(SCC(=O)NC4CCCC4)nc2=O)CCCC3)CC1
 : 1, -5
Cn1cc(N2CCCC(Nc3ccc(Br)cn3)C2)cn1 (stereo unspecified)
 : 5, 2
COCCN1CCC(CN(C)C(=O)c2ccc(Cl)c(C)c2)C1 (stereo unspecified)
 : -4, -7
COc1ccc(Br)cc1CSc1n[nH]c(N)n1
 : 5, 0
COCC(C)NC(=O)c1cc(N2CCc3cc(OC)c(OC)cc3C2)nc2ccccc12 (stereo unspecified)
 : 12, 10
COc1ccc(C2C3=C(CCCC3=O)N=C(C)C2C#N)c(OC)c1 (stereo unspecified)
 : 4, 7
CC(C)Cn1c(N)c(Br)c(=O)[nH]c1=O
 : 0, -2
O=C1O[C@@H](c2ccccc2)[C@@H](C(=O)O)c2ccccc21
 : -1, -4
CC(Oc1ccccc1)C(=O)Nc1ccc(OC2CCN(C(=O)OC(C)(C)C)C2)cc1 (stereo unspecified)
 : -5, -7
COc1ccccc1CN(C(=O)Nc1cccc(C#N)c1)C1CC1
 : 16, 11
Cc1nc2ccccn2c1CN(C)C(=O)CCc1nnc(CCCCc2ccccc2)o1
 : 5, 8
